Screening data: PubChem BioAssay, several laboratories
ALR inh – inhibitors of human ALR sulfhydryl oxidase, primary screen, biochemical, H2O2 detection, HRP-luminol luminescence, single point. inhibition, % (test concentration not listed). purified ALR, DTT oxidation. 290,000 compounds, 3.8% hits. AID 485317, 2010;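 active means mean and each replicate at 75% or more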;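 further: stock transfer was 7.5 nL into about 7.5 µL; 0% = neutral wells and 100% = wells with inactivated enzyme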
AF4-AF9 inh – inhibitors of AF4 peptide binding to AF9, primary screen, biochemical, AlphaScreen, biotin-AF4 peptide, FLAG-AF9, single point. Protein AF-9 (Homo sapiens), P42568. inhibition, % at 10 µM. 350,000 compounds, 0.47% hits. AID 651704, 2012;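 active means every replicate reaching a set inhibition limit, whatever the replicate mean, cut at about 25% in these data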;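 further: 0% = plate neutral control median and 100% = total signal loss; the record names both 10 and 1 µM as test concentration; the first replicate is given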
Target sequence (P42568 whole entry, looked up): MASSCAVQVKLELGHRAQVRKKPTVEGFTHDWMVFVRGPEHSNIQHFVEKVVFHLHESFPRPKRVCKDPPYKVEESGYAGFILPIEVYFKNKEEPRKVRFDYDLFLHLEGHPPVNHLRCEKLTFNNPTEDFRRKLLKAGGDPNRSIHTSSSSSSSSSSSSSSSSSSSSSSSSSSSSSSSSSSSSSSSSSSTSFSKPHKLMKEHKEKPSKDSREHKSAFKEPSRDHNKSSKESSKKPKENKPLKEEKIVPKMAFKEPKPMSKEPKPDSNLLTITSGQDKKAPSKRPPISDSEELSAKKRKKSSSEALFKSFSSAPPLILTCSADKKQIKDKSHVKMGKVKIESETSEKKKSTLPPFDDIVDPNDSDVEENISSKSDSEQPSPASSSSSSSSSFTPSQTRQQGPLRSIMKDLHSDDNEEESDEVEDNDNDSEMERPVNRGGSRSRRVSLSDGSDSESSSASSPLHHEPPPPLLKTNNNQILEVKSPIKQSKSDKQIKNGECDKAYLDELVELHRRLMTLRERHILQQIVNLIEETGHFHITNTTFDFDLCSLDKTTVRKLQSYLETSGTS
FGF22 binding – binders of human FGF22 protein, primary screen, FGF22 synaptogenesis inhibitor project, biophysical, thermal shift, single point; Fibroblast growth factor 22 (Homo sapiens), Q9HCT0; recombinant FGF22 thermal shift, SYPRO orange fluorescence; percent of sucrose octasulfate shift, DMSO zero; calls only at 9.99 µM; 340,000 compounds, 1.5% hits; AID 651658, 2012;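 active means melting point raised past a set limit in the mean and every replicate; three in four hits are not shown here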
HNF4A DNA FP – change in binding of human HNF4A to DNA, primary screen, biochemical, fluorescence polarization, FITC-DNA; Hepatocyte nuclear factor 4-alpha (Homo sapiens), P41235; 360,000 compounds, 0.3% hits; AID 1224865, 2016; activity change, % at 10 µM; 1 h; in the data active means activity change above about 30%, passing the limit was not always enough;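 further: controls were the assay level and a saturating level of protein; the project sought stronger binding though the title names inhibitors; some compounds called inactive have numbers as strong as hits; positive values seem to mean higher polarization but the record does not say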
Target sequence (P41235 whole entry, looked up): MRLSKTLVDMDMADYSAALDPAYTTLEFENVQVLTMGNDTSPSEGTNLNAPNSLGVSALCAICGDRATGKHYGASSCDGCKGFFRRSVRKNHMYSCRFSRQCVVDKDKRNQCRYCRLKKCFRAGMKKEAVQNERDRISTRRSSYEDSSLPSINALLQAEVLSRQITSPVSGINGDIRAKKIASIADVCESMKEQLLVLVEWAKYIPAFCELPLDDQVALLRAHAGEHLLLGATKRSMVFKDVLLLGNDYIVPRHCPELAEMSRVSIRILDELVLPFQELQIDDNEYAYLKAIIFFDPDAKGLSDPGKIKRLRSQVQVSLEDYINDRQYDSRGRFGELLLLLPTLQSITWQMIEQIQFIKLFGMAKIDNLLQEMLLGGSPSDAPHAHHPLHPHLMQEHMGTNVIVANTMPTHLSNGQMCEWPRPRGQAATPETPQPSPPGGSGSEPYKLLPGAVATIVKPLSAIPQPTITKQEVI
Ecoli growth – E. coli growth inhibition, primary screen, OD600. Escherichia coli growth, 23 h; stronger effect = lower value. OD600 absorbance (concentration not given with the values). 330,000 compounds, 0.21% hits;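 active means OD600 absorbance below the run mean of sample wells minus 3.6 SD, in any replicate, cut at about 0.56 in these data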;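 further: stock transfer was 300 nL into about 60 µL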
Vif TR-FRET – inhibitors of Vif binding to APOBEC3G peptide, primary screen, biochemical, TR-FRET, GST-Vif 1-94, biotin-A3G peptide, dose response retest (AID 1117319). one-dose inhibition, %; IC50 in µM for titrated hits. 260,000 compounds, 0.57% hits. TR-FRET GST-Vif / biotin-A3G peptide binding; higher % means a stronger effect; test concentration not given here; strong numbers were not always called active;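 active means above the screen mean plus three standard deviations and confirmed in dose response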;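 further: Vif residues 1-94 fused to GST binding biotinylated APOBEC3G peptide 110-148; 0% = full assay without inhibitor and 100% = GST in place of GST-Vif; retest series ran down from 100 µM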
Ecoli rRNA inh – reduced GFP signal of wild-type E. coli, primary screen, bacterial rRNA inhibitor project, GFP/RFP fluorescence, OD600, single point; E. coli WT GFP vs humanized-ribosome RFP mutants, 24 h; stronger effect = lower value; DMSO median 0, no signal -100; GFP signal change (wild-type ribosome), % (no concentration beside the values); 350,000 compounds, 1.6% hits; AID 720706, 2013;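 active means significant combined selectivity score with lowered wild-type GFP, culture density cut under 30%, mutant RFP and density less affected; inactive means any of these conditions unmet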; further: one replicate is shown; some compounds called inactive have numbers as strong as hits
Ecoli rRNA inh OD600 – recorded beside Ecoli rRNA inh, whose call it bears; OD600 change, %; measured here: OD600 growth;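 optical density of the mix in the first replicate; 0 = DMSO median and -100 = no signal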
Ecoli rRNA inh RFP – second read-out of Ecoli rRNA inh, no call of its own (marks repeat the call); RFP signal change, %; measured here: RFP humanized mutant strains;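 first replicate; 0 = DMSO median and -100 = no signal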
* hit, by the source's call; i = inactive; . = not tested or not shown; + = active, no number. A portion of the library; rates above refer to the full screens.

Values in the order – ALR inh | AF4-AF9 inh | FGF22 binding | HNF4A DNA FP | Ecoli growth | Vif TR-FRET | Ecoli rRNA inh | Ecoli rRNA inh OD600 | Ecoli rRNA inh RFP
COCC(=O)Nc1ccc2c(c1)C(=O)N(C)C[C@H](OC)[C@@H](C)CN(C(=O)COC)[C@@H](C)CO2
→ . | -1.9 | i | . | . | . | 2 | 5 | 0.8
CCC/C=C/c1ccc(CN2C(CC(C)C)C(=O)N(Cc3cn(Cc4ccco4)nn3)CCS2(=O)=O)cc1 (stereo not drawn)
→ . | -0.4 | i | 3.9 | . | . | -5 | -2 | 5.2
Cc1cnc(NC(=O)Cc2ccc(Br)cc2)s1
→ . | 1.4 | i | 6.6 | 0.7 | . | 10 | 11 | 1.4
CCCn1c(=N)n(CCOc2ccc(OC)cc2)c2ccccc21
→ -2 | . | . | 6.3 | 0.68 | 2% | . | . | .
Cc1ccc(-n2nnc3c(=O)n(CC(=O)N4CCOCC4)cnc32)cc1
→ -8 | 5.4 | i | 3.8 | 0.77 | -2% | 3 | 14 | -1.7
COc1ccc(N2CCN(C(=O)CCS(=O)(=O)c3ccc4c(c3)CCN4C(=O)C3CC3)CC2)cc1
→ 45 | -5.3 | i | 0.8 | 0.7 | . | 1 | 1 | -1.3
COc1cc(OC)cc(C(=O)N(Cc2ccco2)c2c(N)n(Cc3ccccc3)c(=O)[nH]c2=O)c1
→ . | -0.2 | i | 2.4 | 0.69 | . | . | . | .
Cc1ccc(N=C2C(=O)Nc3c(C)cccc32)cc1
→ 13 | 3.3 | i | -2.2 | 0.68 | 4% | 10 | 5 | -0.7
CC(=O)c1ccc(S(=O)(=O)NCCC(=O)OC(C)C(=O)Nc2ccc(F)cc2)cc1 (stereo not drawn)
→ 1 | 0.0 | i | 3.6 | 0.7 | -4% | 5 | 9 | -1.5
Cc1[nH]c2ccc(C(=O)NCCCN(C)C3CCCCC3)cc2c1C
→ 11 | 5.3 | i | 5.3 | 0.62 | . | 9 | 11 | 2.3
CCc1nc(SCC(=O)NCCc2ccccc2)c2oc3ccccc3c2n1
→ -17 | . | . | 3.2 | 0.71 | -2% | 5 | 11 | 0.5
CCCOc1ccc(C(=O)CCC(=O)NNC(=O)c2ccncc2)cc1
→ 3 | -1.8 | i | -0.3 | 0.69 | . | 4 | 5 | -4.0
O=C(c1[nH]ncc1-c1ccc(Cl)cc1)C1CO1 (stereo not drawn)
→ 0 | 0.9 | i | 6.5 | . | -13% | -51 | -77 | -8.4
CN(C)S(=O)(=O)c1ccc(C(=O)Nc2nnc(SCc3cccc4ccccc34)s2)cc1
→ -2 | -3.0 | i | 0.5 | 0.68 | -9% | 0 | -1 | -1.7
O=C(c1ccccc1Cl)N(Cc1ccccc1F)N1C(=O)CCCC1=O
→ . | -1.8 | i | -4.0 | 0.69 | . | -20 | -18 | -3.1
CC(=O)Nc1cccc2c1C(=O)N(c1ccccc1OC(C)=O)C2=O
→ . | -0.9 | i | -2.0 | 0.69 | . | 20 | 8 | 1.7
Cc1cccc(C)c1NC(=O)C(C)N1CCCCC1 (stereo not drawn)
→ . | 2.5 | i | 5.1 | 0.7 | -4% | 15 | -2 | 0.2
CC1CN(C(=O)Cn2cc(SCC(=O)N3CCOCC3)c3ccccc32)CC(C)O1 (stereo not drawn)
→ 4 | -2.0 | i | 2.6 | 0.72 | . | 23 | 16 | 5.9
CCc1nnc(NC(=O)CSc2nc(-c3ccccc3)cc(-c3ccc(OC)cc3)c2C#N)s1
→ -11 | . | . | -5.9 | 0.73 | . | . | . | .
CN(C)C(=O)[C@@H]1[C@@H](CO)[C@@H]2Cn3c(ccc(C4=CCCCC4)c3=O)[C@@H]2N1Cc1ccccn1
→ . | 0.2 | i | . | . | . | 2 | 1 | 0.3
O=C(O)c1ccc(Cl)c(S(=O)(=O)Nc2ccc(S(=O)(=O)N3CCCC3)cc2)c1
→ -11 | -1.9 | + | 1.9 | 0.71 | . | 1 | 4 | -0.4
O=C(N=C1SC2CS(=O)(=O)CC2N1Cc1ccc(F)cc1)C1CC1 (stereo not drawn)
→ 0 | 1.1 | i | 0.9 | 0.68 | . | 13 | 24 | -2.1
CC1(C)CC[C@]2(C(=O)O)CC[C@]3(C)C(=CC[C@@H]4[C@@]5(C)CC[C@H](O)C(C)(C)[C@@H]5CC[C@]43C)[C@@H]2C1
→ -5 | -0.4 | i | 0.5 | . | . | 17 | 21 | 2.3
Cc1ccccc1N1CCN(CC(=O)Nc2nccs2)CC1
→ 9 | 2.9 | i | -0.8 | 0.65 | . | -4 | -10 | -0.4
Cc1c(Cl)c([N+](=O)[O-])nn1CC(=O)N1CCCC1
→ -5 | -0.9 | i | 1.8 | 0.73 | 0% | 9 | 0 | 0.1
Cc1cc(C)nc(SCC(=O)c2ccc([N+](=O)[O-])cc2)n1
→ -2 | . | . | 0.2 | 0.75 | 12% | . | . | .
FC(F)(F)c1ccc(NCc2ccccn2)nc1
→ . | -1.4 | i | -0.9 | 0.65 | -15% | 11 | 14 | -1.7
COc1cccc(-n2nnnc2SCC(=O)Nc2nc3c(s2)CCCC3)c1
→ -1 | . | . | -1.8 | 0.76 | 0% | . | . | .
CCCCOC(=O)C1[C@H]2C(=O)N(Cc3cccs3)C[C@]23C=C[C@H]1O3 (stereo partly drawn)
→ 4 | . | . | 4.6 | 0.72 | -1% | . | . | .
Cc1[nH]c2ccccc2c1C(=O)COC(=O)c1c(-c2c(F)cccc2Cl)noc1C
→ 0 | . | . | -0.7 | 0.72 | 0% | . | . | .
N#Cc1ccc(NC(=O)Nc2cccc(C#N)c2)cc1
→ 4 | -0.5 | + | 0.4 | . | 1% | -30 | -53 | 2.9
COc1ccc(CCC(=O)NCc2cn3ccccc3n2)cc1
→ . | -3.1 | i | 2.6 | 0.69 | 9% | 11 | 5 | -2.5
Cc1ccccc1CNC(=O)Cn1ccc2cc(S(=O)(=O)N3CCCCCC3)ccc21
→ 3 | -15 | i | -7.0 | 0.7 | . | -3 | 1 | -1.6
COc1ccc(C(=O)OC/C(O)=C(\C#N)c2nc3ccccc3[nH]2)cc1S(=O)(=O)N1CCOCC1
→ . | . | . | 13 | 0.71 | 8% | . | . | .
CCC(=O)N(C)C[C@H]1Oc2cc(C#Cc3ccccc3)ccc2S(=O)(=O)N([C@@H](C)CO)C[C@@H]1C
→ . | -5.6 | i | . | . | . | -21 | -52 | 34
CN(CC(=O)Nc1ccccc1Cl)C(=O)COC(=O)c1ccc([N+](=O)[O-])cc1Cl
→ -30 | -19 | i | 2.5 | 0.65 | 2% | 6 | 9 | -1.8
Cc1ccc(C)c(-n2ccnc2SCC(=O)c2c(N)n(C3CC3)c(=O)[nH]c2=O)c1
→ 2 | 1.4 | i | -0.2 | 0.62 | 1% | -3 | 2 | -2.6
COc1ccccc1NC(=O)C(C)N(C)CC(=O)Nc1cccc2ccccc12 (stereo not drawn)
→ -4 | 1.6 | i | -3.8 | 0.66 | -13% | -4 | -14 | 5.8
CC(NS(=O)(=O)c1ccccc1)c1n[nH]c(=S)n1-c1ccccc1 (stereo not drawn)
→ 86* | -11 | i | 2.2 | 0.68 | 12% | 8 | 6 | -3.5
CCC1Oc2ccc(C)cc2N(CC(=O)N(Cc2cccnc2)Cc2cccc(F)c2)C1=O (stereo not drawn)
→ -4 | . | . | 3.8 | 0.67 | 23% | . | . | .
COC(=O)c1ccc(S(=O)(=O)c2ccc(C(=O)OC)s2)s1
→ . | -12 | i | . | 0.7 | -4% | 6 | 6 | -2.1
Cc1ccc(NC(=O)CSC(C)C(=O)OCC(=O)N2CCN(C(=O)c3ccco3)CC2)cc1 (stereo not drawn)
→ 9 | -3.7 | i | -2.3 | 0.67 | 6% | 4 | 5 | -1.3
CCN1CCN(S(=O)(=O)c2ccc(Cl)c(C(=O)Nc3cc(Cl)ccc3N3CCOCC3)c2)CC1
→ 2 | 3.1 | i | 1.5 | 0.65 | 0% | -19 | -21 | -1.6
CCCCn1c(=N)n(CC(O)COc2ccccc2)c2ccccc21 (stereo not drawn)
→ -6 | . | . | 2.8 | 0.68 | 3% | . | . | .
O=c1c2[nH]cnc2n(-c2cccc(Br)c2)c(=O)n1Cc1ccccc1
→ -6 | 3.4 | i | 0.1 | 0.61 | -3% | -18 | -20 | -2.7
C[C@H](CO)N1C[C@H](C)[C@H](CN(C)C(=O)CN(C)C)Oc2cc(-c3cncnc3)ccc2S1(=O)=O
→ . | -7.0 | i | . | . | . | 3 | 13 | -2.5
O=C1NN=C(c2ccccc2)CC1c1ccc(Cl)cc1Cl (stereo not drawn)
→ 30 | 0.8 | i | -2.3 | 0.7 | 1% | 24 | 17 | 1.1
O=C(NC1=NCCS1)c1ccc(Cl)cc1
→ 0 | -6.2 | i | 4.6 | 0.65 | . | 7 | 6 | 2.6
COc1ccc(-c2cc(=O)c3ccccc3n2C)cc1
→ -2 | . | . | 2.1 | 0.73 | -2% | . | . | .
CC(=O)N1CC(C)Sc2ccc(S(=O)(=O)NC3CCCCC3C)cc21 (stereo not drawn)
→ 1 | -1.1 | i | 1.5 | 0.68 | -2% | -23 | -25 | -0.1
C/C(=N\O)c1c(O)cc(-c2ccccc2)n(-c2ccccc2)c1=O
→ 8 | -1.5 | i | -1.7 | . | . | -10 | -16 | 0.7
COC(Cc1n[nH]c(=S)n1-c1ccc(Cl)cc1)OC
→ 38 | . | . | -2.7 | 0.71 | -8% | . | . | .
CCCc1cn(CC[C@H]2CC[C@@H](NC(=O)C3CCOCC3)[C@H](CO)O2)nn1
→ . | -3.3 | i | . | . | . | 2 | 8 | -0.6
CCC1OC(C2CC2)CC2=C1C(=O)OC(C)(C)O2 (stereo not drawn)
→ . | -3.3 | i | 3.4 | . | . | 20 | 19 | 1.7
CN(C)S(=O)(=O)c1ccc(N)c([N+](=O)[O-])c1
→ -1 | 1.4 | i | 0.9 | 0.63 | 3% | 19 | 13 | 0.5
C[C@@H]1CN([C@@H](C)CO)C(=O)Cc2cc(NS(=O)(=O)c3cn(C)cn3)ccc2O[C@@H]1CN(C)CC1CC1
→ . | -11 | i | . | . | . | 5 | 7 | -1.8

Retrieved by structure from above:
Values in the order – ALR inh | AF4-AF9 inh | FGF22 binding | HNF4A DNA FP | Ecoli growth | Vif TR-FRET | Ecoli rRNA inh | Ecoli rRNA inh OD600 | Ecoli rRNA inh RFP
CCCn1c(=N)n(CCOc2ccc(OC)cc2)c2ccccc21
→ -2 | . | . | 6.3 | 0.68 | 2% | . | . | .
CC(=O)N1CC(C)Sc2ccc(S(=O)(=O)NC3CCCCC3C)cc21 (stereo not drawn)
→ 1 | -1.1 | i | 1.5 | 0.68 | -2% | -23 | -25 | -0.1

Complete entries as entered above:
CCCc1cn(CC[C@H]2CC[C@@H](NC(=O)C3CCOCC3)[C@H](CO)O2)nn1 across the screens: ALR inh = .; AF4-AF9 inh = -3.3; FGF22 binding = i; HNF4A DNA FP = .; Ecoli growth = .; Vif TR-FRET = .; Ecoli rRNA inh = 2; Ecoli rRNA inh OD600 = 8; Ecoli rRNA inh RFP = -0.6
Cc1ccccc1CNC(=O)Cn1ccc2cc(S(=O)(=O)N3CCCCCC3)ccc21 across the screens: ALR inh = 3; AF4-AF9 inh = -15; FGF22 binding = i; HNF4A DNA FP = -7.0; Ecoli growth = 0.7; Vif TR-FRET = .; Ecoli rRNA inh = -3; Ecoli rRNA inh OD600 = 1; Ecoli rRNA inh RFP = -1.6
